ALR H2O2 inh = human ALR oxidase inhibition via reduced H2O2; P55789; inhibition, % (test concentration not listed); hit rate 3.8% among 290,000; purified ALR, DTT oxidation, H2O2 HRP-luminol luminescence;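 active means mean and each replicate at 75% or more; inconclusive means only one of the two met; inactive means neither met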;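 further: stock transfer was 7.5 nL into about 7.5 µL; 0% = neutral wells and 100% = wells with inactivated enzyme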
Target sequence (P55789 whole entry, looked up): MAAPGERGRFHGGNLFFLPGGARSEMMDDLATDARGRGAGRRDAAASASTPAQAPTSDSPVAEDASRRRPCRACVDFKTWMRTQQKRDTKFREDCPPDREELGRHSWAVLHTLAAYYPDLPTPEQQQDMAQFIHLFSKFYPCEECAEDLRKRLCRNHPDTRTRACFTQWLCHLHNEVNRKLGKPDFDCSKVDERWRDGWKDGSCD
FGF22 binding = shifts melting point of recombinant human FGF22 | hit rate 1.5% among 340,000 | AID 651658 | recombinant FGF22 thermal shift, SYPRO orange fluorescence; percent of sucrose octasulfate shift, DMSO zero | calls only at 9.99 µM | Q9HCT0;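 active means melting point raised past a set limit in the mean and every replicate; inconclusive means no clear call; three in four hits are not shown here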
Target sequence (Q9HCT0 whole entry, looked up): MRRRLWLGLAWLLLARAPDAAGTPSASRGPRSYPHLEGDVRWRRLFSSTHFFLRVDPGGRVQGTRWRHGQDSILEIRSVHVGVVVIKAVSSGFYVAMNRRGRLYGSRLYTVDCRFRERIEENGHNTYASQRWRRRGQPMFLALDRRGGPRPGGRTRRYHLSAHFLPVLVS
AF4-AF9 inh = blocks AF4 peptide binding to human AF9; inhibition, % at 10 µM; AlphaScreen, biotin-AF4 peptide binding to FLAG-AF9; hit rate 0.47% among 350,000;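 active means every replicate reaching a set inhibition limit, whatever the replicate mean, cut at about 25% in these data; inconclusive means mean inhibition reaches that limit but some replicates miss it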;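 further: 0% = plate neutral control median and 100% = total signal loss; the record names both 10 and 1 µM as test concentration; the first replicate is given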
Target sequence (P42568 whole entry, looked up): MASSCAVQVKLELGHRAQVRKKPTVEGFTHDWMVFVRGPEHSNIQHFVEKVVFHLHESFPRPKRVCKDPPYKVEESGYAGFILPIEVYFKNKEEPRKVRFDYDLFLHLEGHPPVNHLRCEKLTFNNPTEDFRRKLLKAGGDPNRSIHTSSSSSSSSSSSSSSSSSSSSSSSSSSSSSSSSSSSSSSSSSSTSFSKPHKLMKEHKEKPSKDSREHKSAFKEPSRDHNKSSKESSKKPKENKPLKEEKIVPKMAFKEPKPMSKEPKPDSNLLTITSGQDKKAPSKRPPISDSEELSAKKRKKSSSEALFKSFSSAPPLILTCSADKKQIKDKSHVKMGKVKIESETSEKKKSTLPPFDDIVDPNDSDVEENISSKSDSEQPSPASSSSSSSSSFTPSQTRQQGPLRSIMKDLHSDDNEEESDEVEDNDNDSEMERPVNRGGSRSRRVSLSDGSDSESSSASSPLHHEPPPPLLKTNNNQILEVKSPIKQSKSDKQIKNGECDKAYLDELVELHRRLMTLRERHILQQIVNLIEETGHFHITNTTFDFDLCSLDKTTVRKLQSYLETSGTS
HNF4A DNA FP = change in binding of human HNF4 alpha to DNA; activity change, % at 10 µM; P41235; HNF4a-FITC DNA binding, fluorescence polarization, 1 h; hit rate 0.3% among 360,000; in the data active means activity change above about 30%, passing the limit was not always enough;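 further: controls were the assay level and a saturating level of protein; the project sought stronger binding though the title names inhibitors; some compounds called inactive have numbers as strong as hits; positive values seem to mean higher polarization but the record does not say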
Ecoli growth = inhibitors of Escherichia coli growth | OD600, 23 h; active compounds read low | AID 1053175 | hit rate 0.21% among 330,000 | OD600 absorbance (no concentration beside the values);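 active means OD600 absorbance below the run mean of sample wells minus 3.6 SD, in any replicate, cut at about 0.56 in these data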;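 further: stock transfer was 300 nL into about 60 µL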
Vif A3G = inhibitors of Vif binding to APOBEC3G peptide, primary screen, biochemical, TR-FRET, GST-Vif 1-94, biotin-A3G peptide, dose response retest (AID 1117319) | TR-FRET GST-Vif / biotin-A3G peptide binding; higher % means a stronger effect; test concentration not given here; strong numbers were not always called active | hit rate 0.57% among 260,000 | inhibition, %; hits with a dose series show IC50 in µM;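 active means above the screen mean plus three standard deviations and confirmed in dose response; inconclusive means results disagree or hit not tested in dose response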;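 further: Vif residues 1-94 fused to GST binding biotinylated APOBEC3G peptide 110-148; 0% = full assay without inhibitor and 100% = GST in place of GST-Vif; retest series ran down from 100 µM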
Ecoli rRNA inh = inhibits bacterial ribosomal RNA function over humanized ribosomes; E. coli WT GFP vs humanized-ribosome RFP mutants, fluorescence, 24 h; active compounds read low; DMSO median 0, no signal -100; GFP signal change (wild-type ribosome), % (concentration not given with the values); hit rate 1.6% among 350,000; AID 720706;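 active means significant combined selectivity score with lowered wild-type GFP, culture density cut under 30%, mutant RFP and density less affected; inactive means any of these conditions unmet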; further: one replicate is shown; some compounds called inactive have numbers as strong as hits
Ecoli rRNA inh OD600 = further read-out of Ecoli rRNA inh, marked with its call; OD600 change, %; measured here: OD600 growth;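 optical density of the mix in the first replicate; 0 = DMSO median and -100 = no signal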
Ecoli rRNA inh RFP = recorded beside Ecoli rRNA inh, whose call it bears; RFP signal change, %; measured here: RFP humanized mutant strains;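 first replicate; 0 = DMSO median and -100 = no signal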
* = called active by the depositor; i = inactive; ? = inconclusive; · = no result given; & = joins results of further samples.

item | ALR H2O2 inh | FGF22 binding | AF4-AF9 inh | HNF4A DNA FP | Ecoli growth | Vif A3G | Ecoli rRNA inh | Ecoli rRNA inh OD600 | Ecoli rRNA inh RFP | molecule
1 | · | i | 0.4 | · | · | · | -2 | -3 | 0.7 | COc1ccc(S(=O)(=O)Nc2ccc3c(c2)C(=O)N([C@@H](C)CO)C[C@@H](C)[C@H](CN(C)S(=O)(=O)c2ccc(F)cc2)OCCCC[C@@H](C)O3)cc1
2 | -16 | i | 3.3 | -8.9 | 0.67 | -3% | 16 | 4 | 1.5 | CN(C)C(=N)c1n[nH]nc1SCc1ccc(Cl)c(Cl)c1
3 | 2 | · | · | -1.1 | 0.67 | -2% | · | · | · | N#Cc1ccc(Cl)cc1NC(=O)COC(=O)[C@H](CCC(N)=O)NC(=O)c1ccc(F)cc1
4 | · | i | 0.3 | -0.8 | · | 5% | 5 | 1 | -0.4 | CCCCN1C(=O)C(CC(=O)NCc2cccs2)CC(C(=O)N(C(C)C)C(C)C)=C1C (centres undefined)
5 | 8 | i | -2.4 | -1.0 | 0.64 | · | -23 | -48 | 1.2 | CC(C)(C)c1csc(NC(=O)CCc2ccccc2)n1
6 | -12 | i | -1.1 | -0.5 | 0.69 | 6% | -5 | -10 | -4.6 | Cc1ccc(C)c(NC(=O)c2ccc(OCc3c(C)noc3C)cc2)c1
7 | 95* | i | -3.6 | 6.5 | 0.68 | · | -6 | -6 | 1.7 | Cc1cc(C)c(C(=O)CSc2nnc(C)c(=O)[nH]2)cc1C
8 | · | i | -6.2 | 6.0 | · | · | 7 | -1 | -0.9 | Cc1c(C(=O)N/N=C/c2cccnc2)nnn1-c1nonc1N
9 | · | i | -6.1 | · | · | · | -1 | -8 | -2.0 | CCS(=O)(=O)N1CC(=O)N2[C@H](CO)[C@@H](c3ccc(-c4cccc(F)c4)cc3)[C@@H]2C1
10 | · | i | -1.9 | · | · | · | 4 | 5 | -0.8 | C[C@H](CO)N1C[C@H](C)[C@H](CN(C)S(=O)(=O)c2ccccc2)Oc2ccc(NC(=O)CCCN(C)C)cc2C1=O
11 | · | i | -2.1 | -3.4 | 0.67 | · | 10 | 3 | 2.3 | O=C(Nc1ccc(S(=O)(=O)Nc2ncccn2)cc1)c1cccc(S(=O)(=O)N2CCOCC2)c1
12 | · | · | · | -4.1 | 0.68 | -2% | · | · | · | Cc1ccc(N=C(c2cccs2)N2CCOCC2)cc1
13 | 16 | i | 0.8 | -0.4 | · | · | 3 | 5 | 8.9 | O=C(NCCNCCO)C1(C(F)(F)F)C/C(=C\CCO)CCCO1 (centres undefined)
14 | · | i | -1.4 | · | · | · | 3 | 6 | 0.2 | CN(C)CC(=O)N1[C@H](CO)[C@H](c2ccc(/C=C/c3ccccc3)cc2)[C@@H]1C#N
15 | · | i | -0.8 | · | · | · | -1 | 6 | 0.7 | Cc1ccc(S(=O)(=O)N(C)C[C@H]2OCCCC[C@@H](C)Oc3ccc(NC(=O)Nc4ccccc4)cc3C(=O)N([C@H](C)CO)C[C@@H]2C)cc1

Structures above with an NH in an aromatic ring:
item | ALR H2O2 inh | FGF22 binding | AF4-AF9 inh | HNF4A DNA FP | Ecoli growth | Vif A3G | Ecoli rRNA inh | Ecoli rRNA inh OD600 | Ecoli rRNA inh RFP | molecule
2 | -16 | i | 3.3 | -8.9 | 0.67 | -3% | 16 | 4 | 1.5 | CN(C)C(=N)c1n[nH]nc1SCc1ccc(Cl)c(Cl)c1
7 | 95* | i | -3.6 | 6.5 | 0.68 | · | -6 | -6 | 1.7 | Cc1cc(C)c(C(=O)CSc2nnc(C)c(=O)[nH]2)cc1C

(continued)
item | ALR H2O2 inh | FGF22 binding | AF4-AF9 inh | HNF4A DNA FP | Ecoli growth | Vif A3G | Ecoli rRNA inh | Ecoli rRNA inh OD600 | Ecoli rRNA inh RFP | molecule
16 | 7 | i | 8.0 | 1.0 | 0.63 | -1% | -8 | -23 | -2.5 | Cc1cc(C(=O)COC(=O)C2=COCCO2)c(C)n1-c1cccc(F)c1
17 | · | i | 2.9 | · | · | · | -6 | -8 | 4.0 | COc1ccccc1C#Cc1ccc2c(c1)O[C@H](CN(C)Cc1cccnc1)[C@@H](C)CN([C@H](C)CO)S2(=O)=O
18 | · | i | -2.3 | 4.3 | 0.63 | · | 13 | 12 | -4.8 | CC(C)c1ccc(CN2CCSCC2)cc1
19 | -1 | · | · | -4.5 | 0.71 | -2% | · | · | · | COc1ccc(Cl)cc1NC(=O)CCn1cnc2ccccc2c1=O
20 | ? | i | -7.0 | -1.1 | 0.64 | 0% | -17 | -24 | -2.6 | Fc1ccc(-c2n[nH]c(=S)n2-c2ccc3c(c2)OCCO3)cc1
21 | 5 | i | -0.8 | -1.5 | 0.7 | -5% | 11 | 1 | 1.2 | Cc1nc2c(C#N)cnn2c2c1CCN2CC1CCCO1 (centres undefined)
22 | · | i | -1.3 | · | · | · | -7 | -2 | -1.3 | C[C@@H]1CCCCO[C@@H](CN(C)S(=O)(=O)c2ccccc2)[C@H](C)CN([C@@H](C)CO)C(=O)c2cc(NC(=O)c3ccccc3)ccc2O1
23 | · | i | -0.9 | 0.0 | 0.68 | -1% | -4 | -13 | 5.2 | N#C/C(=C\c1ccccc1)C(=O)NC1CC1
24 | 6 | i | 1.0 | 2.3 | 0.67 | 1% | -2 | 0 | -2.7 | O=C(NCc1cccnc1)c1noc2c1CCCCC2
25 | -16 | · | · | -1.9 | 0.68 | -4% | · | · | · | c1ccc(-c2onc3cc4c(cc23)OCCO4)cc1
26 | -19 | i | -17 | 0.7 | 0.64 | 2% | 9 | 6 | -3.1 | COc1ccc(CCNC(=O)C2CC(c3ccc([N+](=O)[O-])cc3)=NO2)cc1 (centres undefined)
27 | -4 | · | · | · | 0.73 | 2% | · | · | · | Cc1ccc(C)c(N2CCN(C(=O)CC3Sc4ccccc4NC3=O)CC2)c1 (centres undefined)
28 | -1 | i | 1.0 | -4.0 | 0.67 | 0% | 3 | 0 | 5.7 | COc1ccc(NC(=O)c2cc(-c3ccc(C)cc3O)n[nH]2)c(OC)c1
29 | 0 | i | -3.3 | -1.2 | 0.64 | 8% | 9 | 5 | 1.1 | COCCCNC(=O)CN(CCc1ccccc1)S(=O)(=O)c1ccccc1
30 | -10 | i | -4.7 | 3.6 | · | 13% | 2 | 1 | 6.0 | COCCNC(=O)/C(C#N)=C\c1ccc(CNC(=O)C(=O)Nc2ccc(C)c(C)c2)o1

Values by screen from above:
Nos. 10 to 13 in Ecoli rRNA inh, in turn: 4, 10, ·, 3
Nos. 10 to 13 in FGF22 binding, in turn: i, i, ·, i
Nos. 10 to 13 in Ecoli rRNA inh OD600, in turn: 5, 3, ·, 5

Remaining list, next part
item | ALR H2O2 inh | FGF22 binding | AF4-AF9 inh | HNF4A DNA FP | Ecoli growth | Vif A3G | Ecoli rRNA inh | Ecoli rRNA inh OD600 | Ecoli rRNA inh RFP | molecule
31 | -3 | · | · | -3.2 | 0.69 | 2% | · | · | · | COc1ccc(OC)c(S(=O)(=O)N2CCC(C(=O)NCc3ccccc3OC)CC2)c1
32 | -12 | · | · | 1.1 | · | 31% | · | · | · | Cc1cc(C)c(NC(=O)c2cnn(C)c2)c(C)c1
33 | · | i | -50 | 3.5 | 0.64 | -13% | -8 | 5 | 52 | O=C1CSC(=S)N1Cc1cccs1
34 | -2 | i | 1.6 | -3.2 | 0.7 | -12% | 4 | 7 | -0.8 | Cc1c(C)c2ccc(OCC(=O)N3CCOCC3)c(C)c2oc1=O
35 | -4 | i | 1.1 | 0.2 | 0.64 | · | 4 | -10 | 0.9 | CC1CCC(NS(=O)(=O)c2cccc3nsnc23)CC1 (centres undefined)
36 | · | i | -0.1 | · | · | · | 7 | 13 | -0.7 | C[C@H](CO)N1C[C@H](C)[C@@H](CN(C)C)Oc2ncc(-c3cccc(C(=O)N(C)C)c3)cc2C1=O
37 | -3 | i | 5.5 | 1.4 | 0.69 | · | -3 | -5 | 5.7 | COc1ccc(C(O)(C2CCCCC2)C(CN2CCCC2)c2ccccc2)cc1 (centres undefined)
38 | · | i | 0.1 | 4.4 | · | · | 9 | 11 | -5.3 | O=[N+]([O-])c1ccccc1S(=O)NCc1c(Cl)cccc1Cl (centres undefined)
39 | · | i | -0.1 | 1.3 | · | · | 1 | -6 | 1.7 | COc1cccc(-c2cnc3c(NC(C)=O)cc(-c4ccc(C(=O)NC5CC5)cc4)cn23)c1
40 | -32 | · | · | 77 | 0.78 | 7%&-2% | · | · | · | N#CC1=C(N)SC(N)=C(C#N)C1c1c(Cl)cccc1Cl
41 | -6 | i | 0.9 | 0.9 | 0.62 | 1% | -3 | -2 | -0.3 | S=C(Nc1ccccc1)N1CCN(c2ccccn2)CC1
42 | -1 | · | · | 5.5 | 0.72 | -5% | · | · | · | Cc1ccc(-n2ncc3c(=O)n(-c4ccc(C)c(C)c4)c(C)nc32)cc1
43 | -4 | i | 0.6 | -0.7 | 0.68 | 2% | 3 | 2 | -2.1 | COc1cccc(CNC(=O)c2cc(S(=O)(=O)N3CCOCC3)ccc2N2CCCC2)c1
44 | 1 | i | 1.6 | 4.2 | 0.73 | 10% | 8 | 6 | 14 | CCN1C(=O)/C(=C\c2cn(CCC#N)nc2-c2ccc(F)cc2)SC1=S
45 | · | i | 7.0 | · | · | · | -3 | -1 | 2.5 | C[C@H](CO)N1C[C@H](C)[C@H](CN(C)Cc2cccnc2)Oc2cc(C#CC3CC3)ccc2S1(=O)=O

Reprinted from the entries so far (2 entries):
item | ALR H2O2 inh | FGF22 binding | AF4-AF9 inh | HNF4A DNA FP | Ecoli growth | Vif A3G | Ecoli rRNA inh | Ecoli rRNA inh OD600 | Ecoli rRNA inh RFP | molecule
42 | -1 | · | · | 5.5 | 0.72 | -5% | · | · | · | Cc1ccc(-n2ncc3c(=O)n(-c4ccc(C)c(C)c4)c(C)nc32)cc1
43 | -4 | i | 0.6 | -0.7 | 0.68 | 2% | 3 | 2 | -2.1 | COc1cccc(CNC(=O)c2cc(S(=O)(=O)N3CCOCC3)ccc2N2CCCC2)c1

Later entries
item | ALR H2O2 inh | FGF22 binding | AF4-AF9 inh | HNF4A DNA FP | Ecoli growth | Vif A3G | Ecoli rRNA inh | Ecoli rRNA inh OD600 | Ecoli rRNA inh RFP | molecule
46 | -20 | · | · | 4.1 | · | 0% | · | · | · | CC(C(=O)N/N=C/c1ccc(N(C)C)c(Br)c1)N(c1ccccc1)S(C)(=O)=O (centres undefined)
47 | 3 | i | -9.1 | -3.3 | 0.71 | · | 4 | -2 | -0.9 | O=S(=O)(c1ccc(Br)s1)N1CCC2(CC1)OCCO2
48 | -9 | i | 2.5 | -1.5 | · | 9% | 9 | 6 | -2.0 | O=C(N/N=C/c1ccc(O)c([N+](=O)[O-])c1)C1CC1(c1ccccc1)c1ccccc1 (centres undefined)
49 | · | i | 1.0 | 1.8 | · | · | -52 | -76 | 29 | O=C(NC(c1ccc(-c2ccccc2)cc1)c1cnccn1)C1CCN(CCOc2ccc(F)cc2)CC1 (centres undefined)
50 | -7 | · | · | 2.0 | · | 14% | · | · | · | Cn1cccc1CC(=O)N/N=C\c1cccs1
51 | 7 | · | · | -4.4 | 0.72 | 24% | · | · | · | CCOC(=O)N1CCN(C(=O)c2ccc(OC)c(OC)c2)CC1

Screening results as filed in PubChem BioAssay.

This is a subset; count on the stated rates, not on these rows.
